Bioassay records as filed in PubChem.
NPYLR7 agonist = mosquito NPYLR7 agonism; HEK293T NPYLR7/Galpha15, GCaMP6s calcium fluorescence; activation, % at 10 µM; 270,000 tested, 0.15% active; AID 1259423; in the data active = activation above about 40%;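 note: 0% = vehicle and 100% = reference agonist at the receptor; some compounds past the cut are filed as inactive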
NPYLR7 agonist max-min = second read-out of NPYLR7 agonist, no call of its own (marks repeat the call); activation, %; measured here: Max-Min RFU normalised activation; some inactives read as strong as hits;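 span of the calcium signal over five minutes; 0% = vehicle and 100% = native peptide agonist; compound fluorescence can raise it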
The depositor's hits bear a star; & = joins results of further samples.

Order of results – NPYLR7 agonist max-min | NPYLR7 agonist
O=S(=O)(c1ccc(Br)cc1)N1CCN(CCOC(c2ccc(F)cc2)c2ccc(F)cc2)CC1
    2 | 6
C1COCC2(CN1)CN(C1CCOCC1)CCO2 (stereo unspecified)
    -5 | -1
CC(=O)Nc1ccc(Cc2ccc(NC(C)=O)cc2)cc1
    -4 | -1
COc1ccc(OCc2cc(C(=O)N(C)Cc3cc(C)no3)no2)c(Cl)c1
    8 | 9
COCc1nc(-c2ccc(CN3CCN(C(=O)Cc4c[nH]c5ccccc45)CC3)cc2)no1
    13 | 6
Cc1cc(S(=O)(=O)N2CCN(CCOC(c3ccccc3)c3cccc(C(F)(F)F)c3)CC2)c(Cl)cc1Cl (stereo unspecified)
    0 | 4
O=P(C=C(Cl)c1ccccc1)(C=C(Cl)c1ccccc1)Nc1ccc(F)cc1F
    -17 | -10
Nc1c([N+](=O)[O-])cc(Cl)cc1[N+](=O)[O-]
    8 | 10
O=C(Nc1cc(Cl)ccc1Cl)OCC(F)(F)F
    -1 | 0
CC1CN(C)CCN1C(=O)Cc1nc2ncccn2n1 (stereo unspecified)
    0 | 1
CCCNC(=O)c1nn(Cc2ccc(OCc3ccccc3)cc2)c2ccccc12
    3 | -5
CCC1CN(Cc2cc(Cl)c(OC)cc2OC)CCN1C(C)C (stereo unspecified)
    -12 | -2
S=P1(OCC2CCCO2)C2=C(N3CCCC3)CCCC2=NN1c1ccccc1 (stereo unspecified)
    4 | 5
CN(CCc1ccccc1)C1CCCN(C(=O)Cc2c[nH]c(=O)n(C)c2=O)C1 (stereo unspecified)
    -1 | -1
Cc1nc(CC(=O)N2CCCC(N3CCN(c4ccccc4C)CC3)C2)cs1 (stereo unspecified)
    1&1 | 5&7
c1ccc(C2CC2)c(OCC2=NCCN2)c1
    -29 | 0
CCn1nc(C)c(NC(=O)CN2C[C@H]3C[C@@H](C2)c2cccc(=O)n2C3)c1C
    -2 | 2
COc1ccc2c(c1)[nH]c1c(C)nccc12
    -7&3 | -5&5
COCCC(=O)N1C[C@@H]2C[C@H](C1)c1ccc(NC(=O)Cc3ccccc3)c(=O)n1C2
    -14 | -8
Cc1ccc(C(N)=O)c(OCC(=O)N2CCN(Cc3ccc(Cl)s3)CC2)c1
    3 | 6

Nothing new here: an excerpt of the list.
Order of results – NPYLR7 agonist max-min | NPYLR7 agonist
CCn1nc(C)c(NC(=O)CN2C[C@H]3C[C@@H](C2)c2cccc(=O)n2C3)c1C
    -2 | 2
COc1ccc2c(c1)[nH]c1c(C)nccc12
    -7&3 | -5&5
COCCC(=O)N1C[C@@H]2C[C@H](C1)c1ccc(NC(=O)Cc3ccccc3)c(=O)n1C2
    -14 | -8
Cc1ccc(C(N)=O)c(OCC(=O)N2CCN(Cc3ccc(Cl)s3)CC2)c1
    3 | 6

(continued)
Order of results – NPYLR7 agonist max-min | NPYLR7 agonist
NC(CCP(=O)(O)O)C(=O)O (stereo unspecified)
    -7 | 9
CCCCn1c(=O)c(C(=O)NCCc2ccccc2)c(O)c2ccccc21
    -10 | -4
CC(C1CC1)N(C(=O)c1cn(C)c2ccccc12)C1CC1 (stereo unspecified)
    -5 | -3
N=c1c2c3c(sc2ncn1Cc1ccco1)CCCC3
    19 | 2
CC(C)Cc1nc(-c2cccc(CN3CCN(C(=O)Cc4ccsc4)CC3)c2)no1
    19 | 6
S=C=Nc1cccc(C2(N3CCCCC3)CCCCC2)c1
    -20 | -15
O=C(C[N+]12CCN(CC1)CC2)Nc1ccc2c(c1)OCCO2
    21 | -2
CSc1cccc2sc(N3CCNCC3)nc12
    -2 | -1
Cc1cc(C)cc(N2C(=O)NC(=O)/C(=C\c3ccco3)C2=O)c1
    -13 | -8
CNS(=O)(=O)c1cccc(CNc2ccc(C#N)c(Cl)c2)c1
    -6 | -4
O=C(c1ccc(Cl)cc1)C1CCCN(Cc2cccc3cnccc23)C1 (stereo unspecified)
    0 | 3
CCN1C[C@]2(C)CC[C@H](OC)[C@@]34[C@H]1C1(OCO[C@@]15C[C@H](OC)C1C[C@]3(O)C5[C@H]1OC)[C@@H](O)[C@H]24
    2 | 1
CN1CC2(CCN(Cc3cc(=O)c4cc(Cl)ccc4[nH]3)C2)OC1=O (stereo unspecified)
    5 | 7
CC(Cn1cncn1)NCc1ccc2nonc2c1 (stereo unspecified)
    4 | 18
Cc1ccc(F)c(CNC(=O)c2cn(Cc3c(F)cccc3F)nn2)c1F
    5 | 4
CN1[C@H]2CC[C@@H]1CN(C(=O)c1nc(N)n[nH]1)CC2
    -3 | 10
COCCCNC(=O)CN1C(=O)CSC(c2cccs2)c2c(C(C)(C)C)nn(C(C)(C)C)c21 (stereo unspecified)
    8 | 2
Cc1cccc(Cn2cccc(C(=O)Nc3ccc(Cl)c([N+](=O)[O-])c3)c2=O)c1
    6 | 13
CCCCN(C)C(=O)c1nn(Cc2ccc(C(=O)N3CCOCC3)cc2)c2ccc(OC)cc12
    8 | 5
CN1C2=[N+](CCCCC2)CC1(O)c1ccccc1 (stereo unspecified)
    -1&24 | 2&0

Brought forward from above: 4 entries, then new ones.
Order of results – NPYLR7 agonist max-min | NPYLR7 agonist
COCCCNC(=O)CN1C(=O)CSC(c2cccs2)c2c(C(C)(C)C)nn(C(C)(C)C)c21 (stereo unspecified)
    8 | 2
Cc1cccc(Cn2cccc(C(=O)Nc3ccc(Cl)c([N+](=O)[O-])c3)c2=O)c1
    6 | 13
CCCCN(C)C(=O)c1nn(Cc2ccc(C(=O)N3CCOCC3)cc2)c2ccc(OC)cc12
    8 | 5
CN1C2=[N+](CCCCC2)CC1(O)c1ccccc1 (stereo unspecified)
    -1&24 | 2&0
N#Cc1ccc(NC2CCN(c3ncccn3)CC2)cc1C(F)(F)F
    -3 | -4
COC(=O)C1=CO[C@@H](C)[C@@H]2CN3CCc4c([nH]c5cc(OC)ccc45)[C@@H]3C[C@H]12
    1 | 3
O=C(c1ccc(=O)[nH]c1)N1[C@H]2CCNC[C@@H]1CC2
    1 | 13
CC(C)=CCOc1c2occc2cc2ccc(=O)oc12
    -23 | -12
Cc1ccccc1Cn1cccc(C(=O)Nc2ccccc2C#N)c1=O
    4 | 14
CCCc1nnc(NC(=O)CN2C[C@H]3C[C@@H](C2)c2cccc(=O)n2C3)s1
    2 | -1
COc1ccc(Cl)cc1NC1=NCC(C)S1 (stereo unspecified)
    7 | 13
CCC(O)(CN)c1ccc(Br)cc1 (stereo unspecified)
    -3 | 1
N#CC1(N2CCCCC2)CCCCC1
    -10 | -7
NS(=O)(=O)c1ccc2c(c1)CCN2C(=O)CNC1(c2ccc(Cl)cc2)CCCCC1
    1 | 1
CCOC(=O)C1C2NC(=S)N(c3ccc(C)cc3)C1(C)Oc1ccccc12 (stereo unspecified)
    -6 | -5
CCOC(=O)[C@H]1CN(C(=O)Cc2ccc(OC)cc2)[C@]2(C)C(=O)N(CC3CC3)c3ccccc3[C@H]12
    5 | 0
CNCC(O)c1ccc(O)c(OC)c1 (stereo unspecified)
    -5 | -3
CN1CCN2C[C@@H](CO)[C@H](c3ccccc3)[C@H]2C1
    14 | 8
C=C[C@H]1CN2CC[C@H]1C[C@@H]2[C@H](O)c1ccnc2ccccc12
    -11 | -6
Cc1ccccc1-n1c(Cn2ncc3c(N)ncnc32)nc2cccc(C)c2c1=O
    -13 | -6
O=C(c1cccc(Cl)c1)C1CCCN(Cc2ccncc2)C1 (stereo unspecified)
    -1 | 3
CON(C)S(=O)(=O)c1ccc(Cn2nc(C(=O)Nc3cc(C)nn3C)c3ccccc32)cc1
    21 | 4
O=C(Cc1ccc2c(c1)OCO2)N1CCN(Cc2ccc(-c3noc(-c4ccccc4)n3)cc2)CC1
    0 | 3
O=C(O)[C@@H]1Cc2[nH]cnc2C(c2cccnc2)N1 (stereo partly specified)
    2 | 3
Cc1ccc(-c2noc(CN3CCN(C(=O)COc4cc(C)cc(C)c4)CC3)n2)cc1
    8 | 2
CCOC(=O)C1(CCOc2ccccc2)CCN(C2Cc3ccccc3C2)CC1
    11 | 21
O=[N+]([O-])c1ccc(NS(=O)(=O)c2ccc(F)cc2)cc1C(F)(F)F
    12 | 7
N[C@@H](Cn1oc(=O)[nH]c1=O)C(=O)O
    -14 | 0
CN1CCN(N=Cc2ccc(OP(=S)(c3ccncc3)c3ccncc3)cc2)CC1
    3 | 6
O=C(Nc1ccc(C(F)(F)F)cc1)c1cccn(Cc2ccccc2Cl)c1=O
    4 | 13
CN1C2CCC1CC(C(=O)OC(CO)c1ccccc1)C2 (stereo unspecified)
    -1 | 2
Cc1ccc2c(c1)c(C(=O)NC1CCC(n3cnnc3)CC1)nn2C (stereo unspecified)
    1 | 2
COC(=O)C1=C(C(=O)OC)N2C(=O)c3ccccc3C1N2c1ccccc1 (stereo unspecified)
    1 | 3
O=S(=O)(c1cccc2cccnc12)N1CCN(CCOC(c2ccccc2)c2cccc(C(F)(F)F)c2)CC1 (stereo unspecified)
    1 | 6
COc1ccccc1C1SCC(=O)N(CC(=O)N2CCOCC2)c2c1c(-c1ccccc1)nn2C(C)(C)C (stereo unspecified)
    6 | 13
O[C@]12CO[C@@H](c3ccccn3)C[C@H]1C[C@@H](F)[C@H]2N1CCOCC1
    5 | 3
Cc1cc(C)c(CNc2ncnc3c2cnn3-c2ccccc2)c(=O)[nH]1
    6 | 7
Cc1ccc(-n2nccn2)c(C(=O)N2CCN(c3nc4cc(Cl)ccc4o3)CC[C@H]2C)c1
    -3 | -3
NN=C(N)N
    -6&-7&-8&-11 | 2&-3&4&6
CCOC(=O)C12OC1(c1ccc(CC)cc1)C(=O)c1ccccc1C2=O (stereo unspecified)
    3 | 7
C[N+]1(C)C2CC[C@H]1CC(OC(=O)C(CO)c1ccccc1)C2 (stereo partly specified)
    2 | 2
O=C(CN1CCCC2(CNC(=O)O2)C1)NCc1ccccn1 (stereo unspecified)
    3 | 5
CC(C)OC(=O)C1C2c3ccccc3C(c3ccccc32)C1C(=O)OC(C)C (stereo unspecified)
    10 | 6
CC(=O)OC(C)(C)C(=O)N1CCN(CCOC(c2ccccc2)c2ccc(F)c(F)c2)CC1 (stereo unspecified)
    24 | 19
CC(C)(C)c1ccc(CN2CCN(c3ccccc3O)CC2)cc1
    20 | -1
CC[C@H](O)[C@@H]1NC2CCC1(O)CC2
    34 | 23
N=C1c2ccccc2CN1c1cccc(C(F)(F)F)c1
    7 | 10
CC(Cc1ccccc1F)NCc1noc(-c2ccc3c(c2)OCO3)n1 (stereo unspecified)
    -4 | -2
O=C(Cc1ccc2c(c1)OCO2)N1CCN(Cc2ccc(-c3noc(-c4cccc(C(F)(F)F)c4)n3)cc2)CC1
    -2 | 2
COc1ccccc1[C@@H]1CN(C(=O)c2ccc(=O)[nH]c2)[C@@H]2C3CCN(CC3)[C@@H]21
    -1 | 2
O=P(OCC(F)(F)F)(OCC(F)(F)F)N1CCOCC1
    -16 | -8
Cc1ccnc(CC(C)N(C)Cc2ccc(S(C)(=O)=O)cc2)c1 (stereo unspecified)
    -2 | -2
CCOC(=O)c1cncn1[C@H](C)c1ccccc1
    -4 | -1
Cc1ccc(NC(=O)c2cc3cccnc3n(Cc3ccccc3F)c2=O)cc1
    11 | 18
CCOc1ccc(CN2CCC3(CC2)CN(C)CCN3C)cn1
    18 | 25
Cc1ccc(-c2nc(CN3C[C@@H]4C[C@@H](C3)c3cccc(=O)n3C4)c(C)o2)s1
    19 | 20
CC(C)CCN(C1CC1)S(=O)(=O)c1ccc(C#N)c(Cl)c1
    2 | 4
N#CC(C#N)=Cc1cc2c(cc1Br)OCO2
    24 | 19
O=C(N[C@H]1CN2CCC1CC2)c1ccc(Cl)cc1
    -18 | 3
O=C1CN=C(c2ccc(Br)cc2)c2ccccc2N1
    -6 | -5
CC(C)Oc1ccc(C2(O)C(=O)NC(=O)NC2=O)cc1
    5 | 15
Oc1cccc(CN2CCN(CCOC(c3ccccc3)c3ccc(F)c(F)c3)CC2)c1O (stereo unspecified)
    -1 | 3
CC(C)=CCN(CC1CCOC1)C1CC1 (stereo unspecified)
    -4 | -2
CC(C)(C)c1ccc(COc2coc(CN3CCCN(C(=O)Cc4ccc(F)cc4)CC3)cc2=O)cc1
    37 | 31

(next part)
Order of results – NPYLR7 agonist max-min | NPYLR7 agonist
O=C(O)[C@@H]1C[C@@H]2CCCC[C@@H]2N1
    19 | 11
COC(=O)C1C(=N)Oc2cc(C)n(C)c(=O)c2C12C(=O)N(Cc1ccccc1)c1ccccc12 (stereo unspecified)
    1 | 3
NC(=O)c1cc(N2CC2)c([N+](=O)[O-])cc1[N+](=O)[O-]
    -15 | 5
Cc1ccc(C2CNCC2C(=O)N2CCN(c3ccccc3C)CC2)cc1 (stereo unspecified)
    18 | 24
CCNc1nc(Cl)nc(NCC)n1
    -11 | -4
CCOC(=O)N(c1ccccc1)P1(=S)OCC(C)(C)CO1
    4 | -1
O=C(c1ccc(C(F)(F)F)c(F)c1)N1CCN(CCOC(c2ccccc2)c2ccccc2)CC1
    1 | 3
Oc1ccc(N2CCN(CCc3ccncc3)CC2)cc1
    3&9 | 7&12
CC12CN3CC(C)(CN(C1)C3c1ccco1)C2 (stereo unspecified)
    7 | 0
CC1CCCCC1NC(=O)c1cnn(Cc2ccccc2Cl)c1 (stereo unspecified)
    -9 | -5
CCn1cc(C(=O)OC(C)C(=O)NC(=O)NC(C)(C)C)c2ccccc21 (stereo unspecified)
    -3 | -2
Fc1ccc(C(OCCN2CCN(Cc3nccs3)CC2)c2ccccc2)cc1F (stereo unspecified)
    8 | 8
O=C1C(C(c2cccc(F)c2)N2CC3CC(C2)c2cccc(=O)n2C3)Sc2ncnn21 (stereo unspecified)
    2 | 3
c1ccc(-c2nc(C[N+]34CCN(CC3)CC4)cs2)cc1
    4 | 5
CN1CC[C@H]2CN(c3nc4c(cc3C(=O)O)CCC4)C[C@H]21
    4 | 4
CC(=O)OC1CC[C@@]2(C)C(CC(=O)C3C2CC[C@]2(C)C(OC(C)=O)CCC32)C1 (stereo partly specified)
    3 | 8
COC(=O)c1ccc(COC(CN2CCN(C(=O)Cc3cccs3)CC2)c2cccc(OC)c2)cc1 (stereo unspecified)
    10 | -2

An excerpt; count on the stated rates, not on these rows.
